From PubChem BioAssay
Kir21 block: Kir2.1 (mouse) channel inhibition | P35561 | B-score at 10 µM | HEK293-Kir2.1, FluxOR thallium flux fluorescence; hits give low values | 310,000 tested, 0.85% active | AID 1672;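 active = fluorescence ratio B-score at or below minus 3 SD of library scores, with starting-brightness B-score within 2 SD, cut at about -4.2 in these data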;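 note: channel flux triggered by added potassium and thallium sulfate stimulus; B-score of peak minus minimum fluorescence over baseline after thallium stimulus; more negative B-score means stronger Kir2.1 block with less thallium influx; some compounds called inactive have numbers as strong as hits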
Target sequence (P35561 whole entry, looked up): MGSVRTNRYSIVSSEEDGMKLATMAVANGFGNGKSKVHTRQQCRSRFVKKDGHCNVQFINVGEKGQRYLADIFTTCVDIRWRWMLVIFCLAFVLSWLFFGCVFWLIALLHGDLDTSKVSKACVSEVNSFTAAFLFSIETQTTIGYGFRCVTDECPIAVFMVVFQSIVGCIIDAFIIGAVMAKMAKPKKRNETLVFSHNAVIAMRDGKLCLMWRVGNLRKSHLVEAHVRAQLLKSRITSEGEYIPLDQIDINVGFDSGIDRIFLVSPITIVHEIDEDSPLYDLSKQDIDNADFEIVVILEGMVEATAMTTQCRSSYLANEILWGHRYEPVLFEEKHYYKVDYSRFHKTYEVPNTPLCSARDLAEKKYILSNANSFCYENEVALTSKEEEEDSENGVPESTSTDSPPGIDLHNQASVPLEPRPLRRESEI
The depositor's hits bear a star. Only part of the results is shown, and most or all hits are left out here.

nr	canonical_smiles	Kir21 block
1	CC(C)OCC(O)CN (centres undefined)	0.07
2	COc1cc2cc(Br)cc(Br)c2nc1C	-1.12
3	CCCCn1c(-c2ccc(OC(F)F)cc2)nc2c1c(=O)[nH]c(=O)n2CC(C)C	0.01
4	Nc1nnc(CC(=O)N/N=C/c2ccc([N+](=O)[O-])cc2)s1	0.71
5	CCCCC(=O)NC(=S)Nc1cccc(NC(=O)c2ccco2)c1	1.72
6	N/C(=N\c1nc2c(c(=O)[nH]1)CCCC2)Nc1ccccc1Sc1ccccc1	-1.22
7	COc1ccc(C(=O)n2cnc3ccccc32)cc1Br	-0.05
8	COC(=O)c1c(NC(=O)CCS(=O)(=O)c2ccccc2)sc2c1CCN(C)C2	-0.07
9	CCN(Cc1nc(-c2cccc(Cl)c2)no1)CC1CCCO1 (centres undefined)	-0.95
10	C[n+]1ccccc1C1CCCC/C1=N\Nc1ccc([N+](=O)[O-])cc1[N+](=O)[O-] (centres undefined)	1.06
11	CSc1nsc(SCc2ccc(F)cc2)n1	0.9
12	CC(C)C(=O)NC(c1cccs1)c1cc([N+](=O)[O-])c2cccnc2c1O (centres undefined)	0.02
13	CN(C(=O)CC1C(=O)NCCN1C/C=C/c1ccccc1)C1CCOCC1 (centres undefined)	-0.68
14	Cc1cc(C)c2sc(N(CCCN(C)C)C(=O)COc3ccc(Cl)cc3)nc2c1	-0.36
15	Cc1nc2ccccc2n1C(=O)c1cc(-c2ccc(Br)cc2)nc2ccccc12	1.83
16	O=C(NCCc1csc(-c2cccnc2)n1)c1cccc2ccccc12	-0.45
17	CCOC(=O)N1CCN(C(=O)CSc2ccc3nnc(-c4ccccn4)n3n2)CC1	1.54
18	CCN(CC)CCCNC(=O)CSc1nc(-c2cccs2)cc(C(F)(F)F)n1	-2.1
19	O=C(CSc1ncccn1)Nc1ccccc1	0.97
20	COc1ccc(C(=O)O)cc1S(=O)(=O)NC(C)(C)C	-0.49
21	Brc1cccc(-c2nnc3sc(CNC4CCCC4)cn23)c1	-0.02
22	Cc1cc(C)n2nc(-c3sccc3-n3cccc3)cc2n1	-1.19
23	O=C(CSc1nc2ccccc2[nH]1)Nc1ccc(F)cc1	0.34
24	O=C(Cc1ncc(C(F)(F)F)cc1Cl)NCc1cccnc1	0.18
25	CC1CCN(C(=O)c2[nH]cnc2C(=O)N[C@@H](Cc2ccccc2)C(=O)OC(C)(C)C)CC1	-0.66
26	CC(Cc1nnc(N)s1)c1ccccc1 (centres undefined)	-3.76
27	COc1ccc(OCC(O)Cn2c(N3CCCCC3)nc3c2c(=O)n(C)c(=O)n3C)cc1 (centres undefined)	0.42
28	O=C(NCc1ccccn1)c1cc(-c2ccc(Cl)cc2)nc2ccccc12	1.09
29	Cc1ccccc1NC(=S)NN1CCN(C)CC1	-0.57
30	COc1ccc(NC(=O)NNC(=O)COc2ccc(Cl)cc2C)cc1OC	0.19
31	O=C(c1cccs1)N1CCN(C(=O)c2ccco2)c2ccccc2C1	0.52
32	CCN(CC)C(=O)Cn1cc(S(=O)(=O)CC(=O)Nc2cc(C)on2)c2ccccc21	0.87
33	CC(C)Nc1nc(NC(C)C)nc(C(N)=O)n1	-0.07
34	CCO[C@@H]1OC(C(=O)N2CCN(Cc3ccccc3)CC2)=C[C@H](c2cn(C(C)=O)c3ccccc23)[C@H]1CCCO	0.06
35	CC1Cc2ccccc2N1CC(=O)NC(=O)NCc1ccccc1 (centres undefined)	-1.1
36	N=c1c(S(=O)(=O)c2ccc(Br)cc2)cc2c(=O)n3ccccc3nc2n1C1CCCC1	-1.11
37	N#Cc1cn(N2CCCCC2)c(=O)[nH]c1=O	-0.38
38	O=C(O)c1c[nH]c2cc(C(F)(F)F)ccc2c1=O	0.81
39	CCn1c(SCC(=O)N2CCCC2)nc2c(c1=O)SC(C)C2 (centres undefined)	0
40	CN1CCN(CC(=O)Nc2ccc(Cl)cc2Cl)CC1	-0.09
41	CCn1c(COc2cc(C)cc(C)c2)nnc1SCC(=O)N1CCN(c2ccccc2)CC1	1.29
42	CC1(C(=O)NC2CCCCCCC2)CCC(=O)N1Cc1ccco1 (centres undefined)	-1.27
43	Cc1cc(NC(=O)Nc2cc(Cl)ccc2C)no1	-1.19
44	O=C(NC(=S)NCCN1CCOCC1)c1ccccc1	-0.18
45	CN(C(=O)CSc1nc2cc([N+](=O)[O-])ccc2n1-c1ccc(F)cc1)C1CCS(=O)(=O)C1 (centres undefined)	1.04
46	O=C(NCCN1CCCCC1)Nc1ccc(F)c(Cl)c1	-0.04
47	COc1cc(OC)c(OC)cc1/C=N/NC(=O)CC1C(=O)NN=C1C (centres undefined)	0.91
48	CCNC(=S)NNC(=O)c1cccn(Cc2ccc(Cl)cc2)c1=O	-1.22
49	N#C/C(=C\c1ccc(N2CCCCC2)o1)C(N)=O	-6.6
50	OCC1CCCCN1C(=S)NCc1ccco1 (centres undefined)	0.19
51	O=C(COC(=O)c1ccc([N+](=O)[O-])s1)NC(c1ccccc1)c1ccccc1	2.67
52	O=S(=O)(c1ccc(F)cc1)n1ccc(-c2cnc(-c3ccccc3)s2)n1	-0.79
53	Cn1nnc2cc(NC(=O)N3CC4(C)CC3CC(C)(C)C4)ccc21 (centres undefined)	0.83
54	O=C(O)c1cccc(Nc2ccncc2[N+](=O)[O-])c1	1.53
55	Cc1ccc(OCC(=O)Nc2cccc(C)n2)c(C)c1	0.01
56	CC(C)CNC(=O)c1cccc(NC(=O)CSc2ccc(Cl)cc2)c1	-0.55
57	COc1cc(OC)c(OC)cc1/C=C1\Oc2cc(OS(C)(=O)=O)ccc2C1=O	-1.1
58	Cc1ccc(/C=N/NC(=O)c2ccc3nc[nH]c3c2)s1	0.17
59	N#Cc1ccc(OCC(=O)NCC2(N3CCCCC3)CCCCC2)cc1	-0.35
60	Cc1cccn2c(=O)c(/C=C(\C#N)C(N)=O)c(Oc3ccccc3)nc12	-0.5

(more compounds)
nr	canonical_smiles	Kir21 block
61	O=C(OCC(=O)c1c[nH]c2ccccc12)c1ccc(Br)o1	-0.6
62	Cc1noc(C)c1C(=O)Nc1ccc(N(C)C)cc1	-0.02
63	CC1CCCC(NC2CCCCNC2=O)C1 (centres undefined)	-0.06
64	C=CCn1c(SCC(=O)N2CCCC2)nc2c([nH]c3ccccc32)c1=O	0.33
65	CN1C(=O)SC(Nc2cccc3ccccc23)C1=O (centres undefined)	-1.93
66	CCS(=O)(=O)NCC(c1cccnc1)N1CCN(c2ccc(F)cc2)CC1 (centres undefined)	2.55
67	CCc1ccc(-c2cc(C(=O)N/N=C/c3ccco3)[nH]n2)cc1	-0.16
68	COc1cc(C2C3=C(CC(c4ccco4)CC3=O)Nc3ccccc3N2C(C)=O)cc(OC)c1OC (centres undefined)	-0.39
69	COc1ccc(NC(=O)C2CCCN2C(=O)Oc2ccccc2)cc1 (centres undefined)	-0.97
70	CCOC(=O)c1c(C)[nH]c(C)c1C(=O)COC(=O)CNC(=O)C1CCCCC1	-0.67
71	O=C(CC(=O)Nc1nc(C23CC4CC(CC(C4)C2)C3)cs1)NCCO	-0.1
72	Cc1ccc(-c2cc(C(=O)OCC(=O)N(C)C3CCS(=O)(=O)C3)c3ccccc3n2)o1 (centres undefined)	0.64
73	CCOC(=O)c1[nH]c(C)c(C(=O)OCC)c1C	-0.19
74	O=C(CSc1nc2ccccc2c(=O)n1Cc1ccco1)N1CCCC1	-1.71
75	CC(C)c1ccc(S(=O)(=O)N2CCN(C(=O)CCNS(=O)(=O)c3ccccc3F)CC2)cc1	-0.57
76	O=C(NCc1ccc2c(c1)OCO2)c1cnc2ccccn2c1=O	-0.65
77	Cc1cc([N+](=O)[O-])nn1Cc1ccc(C(=O)N/N=C/c2ccccc2)cc1	0.02
78	Cn1c(=O)c2nc(NCc3ccccc3)cnc2n(C)c1=O	-1.42
79	COc1ccc(OC)c(C2C(C(=O)c3ccco3)=C(O)C(=O)N2Cc2cccnc2)c1 (centres undefined)	0.44
80	O=C(O)c1c(C(=O)O)c(-c2ccc(Br)cc2)n2c1CSC2	-0.62
81	Cc1ccccc1-n1c(SCC(=O)N2CCN(c3ccccc3)CC2)nnc1-c1ccncc1	-0.32
82	O=S1(=O)CCO[C@H]2Cc3ccccc3[C@H]2N1Cc1cccc(F)c1	-3.49
83	Cc1ccc(S(=O)(=O)CCC(=O)OCC(=O)N2CCN(c3ccccc3)CC2)cc1	-0.87
84	Cc1ccc(N(C(C)C(=O)Nc2ccc(S(=O)(=O)N3CCOCC3)cc2)S(C)(=O)=O)cc1C (centres undefined)	-0.02
85	CCC(c1nnnn1C(C)C)N1CCN(C2CCCC2)CC1 (centres undefined)	0.04
86	CSc1n[nH]c(=O)n1C1CCCCC1	0.76
87	CN1CCN(CC(O)c2ccccc2)CC1 (centres undefined)	-0.25
88	CCCN(C(=O)CCNC(=O)Cn1cnc2ccccc2c1=O)c1cccc(C)c1	-2.04
89	COc1ccc(C(C)(C)C)cc1NC(=O)C1C2C=CC(C2)C1C(=O)O (centres undefined)	-0.26
90	COc1ccc(OCCNC(=S)Nc2cccc3ccccc23)cc1	-0.16
91	O=C(CCCNS(=O)(=O)c1ccc(Br)cc1)N1CC[C@@]2(O)CCCC[C@H]2C1	0.09
92	Cc1cc(=O)oc2cc(OCC(=O)N3CCCC(C)C3)ccc12 (centres undefined)	-0.12
93	CC(=O)Nc1ccc(SCC(=O)OCC(=O)NC(=O)NC2CCCC2)cc1	1.14
94	CCCC1CCc2c(c3ccccc3[nH]c2=O)O1 (centres undefined)	0.3
95	COCC(=O)N1CCC(Oc2ccc(C(=O)NC3Cc4ccccc4C3)cc2)CC1	1.53
96	Cc1ccc(C)c(NC(=O)C(CC(=O)O)Cc2ccccc2)c1 (centres undefined)	1.37
97	CN1CCCCc2c1[nH]c1ccccc1c2=O	0.01
98	Cc1ccn2c(=O)nc(SCC(=O)Nc3ccc4c(c3)OCO4)nc2c1	-0.69
99	CC(C)(O)C#Cc1ccc(C(=O)N2CCC(C(N)=O)(N3CCCCC3)CC2)cc1	1.19
100	Cc1cc(C(=O)NCc2cccs2)ccc1[N+](=O)[O-]	-0.01

Shown as labelled records: entries from further up.
97	CN1CCCCc2c1[nH]c1ccccc1c2=O
  Kir21 block: 0.01

91	O=C(CCCNS(=O)(=O)c1ccc(Br)cc1)N1CC[C@@]2(O)CCCC[C@H]2C1
  Kir21 block: 0.09

82	O=S1(=O)CCO[C@H]2Cc3ccccc3[C@H]2N1Cc1cccc(F)c1
  Kir21 block: -3.49

84	Cc1ccc(N(C(C)C(=O)Nc2ccc(S(=O)(=O)N3CCOCC3)cc2)S(C)(=O)=O)cc1C (centres undefined)
  Kir21 block: -0.02

Part of the list above in a different format:
| cpd | Kir21 block | structure |
| --- | --- | --- |
| 65 | -1.93 | CN1C(=O)SC(Nc2cccc3ccccc23)C1=O (centres undefined) |
| 36 | -1.11 | N=c1c(S(=O)(=O)c2ccc(Br)cc2)cc2c(=O)n3ccccc3nc2n1C1CCCC1 |

The list continues:
nr	canonical_smiles	Kir21 block
101	O=C(CSc1ccccn1)Nc1ccc2c(c1)OCO2	-0.05
102	CCCC(=O)Nc1nn(C)c2nc3ccc(C)cc3cc12	-0.73
103	O=C(c1ccc(Oc2ccccc2)cc1)C1CCCN(C(=O)c2cnccn2)C1 (centres undefined)	1.21
104	CN(C)S(=O)(=O)c1cccc(NC(=O)c2cncc(Br)c2)c1	0.88
105	CCN(CC)S(=O)(=O)c1ccc(O)c(C(=O)OCC(=O)Nc2ccc(OC(F)(F)F)cc2)c1	-0.38
106	CCOC(=O)c1cnn(-c2ccccc2)c1-n1cccc1	1.19
107	COc1ccc(OCCN2C(=O)NC(C)(c3ccc(C)cc3)C2=O)cc1 (centres undefined)	-1.99
108	Cc1ccc(C(=O)Nc2ccccc2OC(F)F)cc1	1.16
109	COC(=O)Cn1c(=NC(=O)CSCC(=O)Nc2cc(C)on2)sc2cc(C(=O)OC)ccc21	2.25
110	Cc1c(C(=O)Oc2cccc3cccnc23)oc2ccccc12	0.36
111	CC(=O)N1CCN(Cc2nc3cc(NC(=O)c4cccc(Br)c4)ccc3n2C)CC1	-0.9
112	CCC(=O)N1CCN(c2ccc(NC(=O)COc3cccc(C)c3C)cc2)CC1	0.02
113	CC(=O)Nc1ccc(NS(=O)(=O)c2cc([N+](=O)[O-])ccc2C)cc1	0.26
114	CCn1c(CN2CCCCCC2=O)nnc1SCc1cnc(-c2ccccc2)s1	-1.57
115	Cc1c(NC(=O)Nc2cccc(F)c2)c(=O)n(-c2ccccc2)n1C	-0.85
116	NC(=O)NC(=O)COC(=O)c1cccc(NS(=O)(=O)/C=C/c2ccccc2)c1	0.61
117	Cc1noc(C)c1C(=O)Nc1ccc2c(c1)CCC2	-2.03
118	Cc1cc(-c2nnc(CCC(=O)NC(C)c3ccccc3Cl)o2)no1 (centres undefined)	-0.24
119	COC(=O)CC1C(=O)NCCN1C(=O)c1ccccc1 (centres undefined)	-0.03
120	COc1ccc(-c2noc3c2-c2nc(-c4ccc(Cl)cc4)sc2CC3)cc1	-1.23
121	CN(CCCCCCCCC(=O)/C=N/O)Cc1ccccc1	-3.37
122	COc1ccc(CCNC(=O)C/C(C)=N/NC(=O)C2CCCCC2)cc1OC	-1.46
123	O=C(Nc1cccc2ccccc12)C1CCN(C(=O)Cc2ccccc2)CC1	-0.5
124	C=CCOc1cccc(C2C(C(=O)c3ccco3)=C(O)C(=O)N2Cc2ccco2)c1 (centres undefined)	0.08
125	COc1ccc(CNC(=O)c2sccc2C)cc1	-0.01
126	CCOC(=O)c1[nH]c(C)c(C(=O)OCC(=O)NC(=O)NC(C)(C)C)c1C	-0.9
127	CCOc1ccccc1/C=C/c1onc(C)c1S(=O)(=O)N1CCC(C(=O)NC)CC1	0.32
128	O=c1c(Cl)c(N2CCN(c3ccccc3)CC2)cnn1C12CC3CC(CC(C3)C1)C2	1.27
129	Cc1cccc(OCc2nnc(SCC(=O)Nc3sc(C)c(C)c3C#N)n2C)c1	-1.87
130	CC(C)C1N(C(=O)N(C)C)CCN1S(=O)(=O)c1ccccc1 (centres undefined)	0.23
